Assay outcomes from PubChem.
Calb FLC – C. albicans growth inhibition with fluconazole, primary screen, CaCi-2 strain, Alamar Blue fluorescence; 0.57% of 300,000 active; C. albicans CaCi-2 (fluconazole-resistant clinical isolate) + fluconazole, 48 h; growth inhibition, % (no concentration beside the values);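 active = most replicates above 75%; inconclusive = exactly half above 75%; inactive = most below 75%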;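 also: all wells also contain fluconazole at 8 µg/ml as a sub-toxic cotreatment; 0% = median of DMSO wells and 100% = median of geldanamycin control wells; wells of about 8 µL received 7.5 nL stock; the first replicate is given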
T cruzi repl – inhibitors of intracellular T. cruzi growth, primary screen, luminescence, NIH3T3 host cells. T. cruzi beta-gal in NIH3T3, 90 h. inhibition, % (no concentration beside the values). 1.4% of 300,000 active. AID 1885, 2009;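 active = mean inhibition across valid replicates above about 55%, limit read from the data; inconclusive = mean below that limit but half or more replicates reach it; inactive = mean below it, under half of replicates reach it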;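 also: signal also drops with host cell toxicity which is not excluded here; 0% = plate median of DMSO wells and 100% = zero luminescence signal; higher percent means less beta-gal luminescence so fewer parasites; stock transfer was 50 nL into about 50 µL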
RanGTP-Impb inh – inhibitors of RanGTP-importin-beta interaction, primary screen, biochemical, FRET, CFP-Ran, YFP-importin-beta, homogeneous; inhibition, % (no concentration beside the values); cell-free CFP-Ran/YFP-importin-beta FRET ratio; 1.1% of 300,000 active; Ran GTPase (GTP-bound) - importin-beta complex;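 active = most replicates above 15%; inconclusive = exactly half above 15%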;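 also: 0% = DMSO wells and 100% = Ran loaded with GDP instead of GTP; wells of about 40 µL received 100 nL stock; the first replicate is given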
B2AR ag – beta2AR agonists driving receptor internalization, primary screen, cell-based, FAP fluorogen, flow cytometry; AID 504454, 2011; response, % (concentration not given with the values); Am2.2-beta2AR cells; reference of the scale not given here; 0.43% of 340,000 active; Beta-2 adrenergic receptor (Homo sapiens), P07550;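 active = response above a set limit, near 3 SD of response in nonfluorescent compounds, cut at about 42% in these data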;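 also: stock transfer was 100 nL into about 11 µL; a reference agonist was the positive control; negative values mostly stem from fluorescent compounds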
Target sequence (P07550 whole entry, looked up): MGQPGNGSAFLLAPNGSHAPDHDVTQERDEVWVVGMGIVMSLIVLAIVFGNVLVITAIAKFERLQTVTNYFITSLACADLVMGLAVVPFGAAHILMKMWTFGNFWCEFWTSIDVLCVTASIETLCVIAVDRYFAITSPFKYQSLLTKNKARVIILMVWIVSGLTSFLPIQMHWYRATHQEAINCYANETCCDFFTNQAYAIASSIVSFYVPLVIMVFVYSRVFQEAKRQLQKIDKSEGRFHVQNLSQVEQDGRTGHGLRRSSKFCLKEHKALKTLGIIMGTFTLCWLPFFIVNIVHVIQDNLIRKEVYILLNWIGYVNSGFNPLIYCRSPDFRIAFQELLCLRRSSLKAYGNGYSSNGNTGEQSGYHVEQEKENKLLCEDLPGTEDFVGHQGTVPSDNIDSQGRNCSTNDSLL
A1 inh – caspase 3/7 activation in MEF A1-2A-BIM cells, primary screen, A1 inhibitor project, cell-based, luminescence, HTS. 0.066% of 330,000 active. Caspase-Glo 3/7 luminescence, 3 h; percent of clofoctol response, vehicle zero. caspase activation, % (no concentration beside the values). AID 2462, 2010;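 active = over half of replicate activation scores above 10%, or exactly half above 10 with the replicate mean above 10; inconclusive = replicate mean below 10 yet half the replicates above 10; inactive = over half of replicates below 10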;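 also: wells of about 30 µL received 50 nL stock; many hits fall short of the cut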
Beta cell apopt – inhibitors of cytokine-induced beta cell apoptosis, primary screen, luminescence; 0.8% of 300,000 active; protection from apoptosis, % (concentration not given with the values); INS-1E cytokine-induced death, ATP luminescence, 48 h; percent of positive-control rescue, neutral wells zero;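 active = all replicates at 75% or more, or half of them and the mean; inconclusive = half reach 75% but not the mean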;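 also: 0% = cytokine-treated negative control wells and 100% = positive control rescue; higher means more ATP so stronger rescue from cytokine killing; wells of about 40 µL received 100 nL stock; the first replicate is given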
LANA-H2A inh – blockers of LANA interaction with H2A/H2B – biochemical, FP readout, HTS, primary screen | 0.6% of 320,000 active | inhibition, % (concentration not given with the values) | cell-free LANA-H2A/H2B peptide, fluorescence polarization | AID 2629, 2010; in the data active = inhibition mostly above about 10%, no sharp cut-off; inactive = mostly below about 6.7%;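 also: stock transfer was 7.5 nL into about 10 µL; 0% = median of vehicle wells and 100% = median of positive control wells; one replicate is shown; the record names a cut of 25% in any replicate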
UCH37 inh – inhibitors of human UCH37 deubiquitinase, primary screen, biochemical, Ub-AMC cleavage, fluorescence; Ubiquitin carboxyl-terminal hydrolase isozyme L5 (Homo sapiens), Q9Y5K5; purified proteasome/UCH37; inhibition, % (no concentration beside the values); 0.33% of 330,000 active; AID 588478, 2011;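 active = mean of two replicates above 20%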;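 also: 0% = compound-free wells with enzyme and 100% = wells lacking proteasome; stock transfer was 100 nL into about 20 µL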
Target sequence (Q9Y5K5 whole entry, looked up): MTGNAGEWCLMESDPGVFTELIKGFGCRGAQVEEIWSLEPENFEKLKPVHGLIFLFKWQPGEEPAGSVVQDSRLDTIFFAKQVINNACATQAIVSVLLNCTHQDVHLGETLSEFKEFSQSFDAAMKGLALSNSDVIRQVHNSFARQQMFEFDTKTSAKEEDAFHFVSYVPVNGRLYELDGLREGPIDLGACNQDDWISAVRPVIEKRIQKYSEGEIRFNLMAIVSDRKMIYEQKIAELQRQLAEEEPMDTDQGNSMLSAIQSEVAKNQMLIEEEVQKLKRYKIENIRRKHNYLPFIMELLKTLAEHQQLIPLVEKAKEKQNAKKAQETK
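Schedule: 30 min plus 25 min, room temperature / Material: human UCH37 within purified proteasomes / Technique: AMC fluorescence intensity at 355/460 nm / Buffer or medium: pH 7.4 Tris-HCl (50 mM) with ovalbumin, ATP-MgCl2, DTT / Controls: wells without proteasome as full block, compound-free enzyme plus substrate as uninhibited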
The depositor's hits bear a star; ? = inconclusive; . = not tested or not shown.

SMILES	Calb FLC	T cruzi repl	RanGTP-Impb inh	B2AR ag	A1 inh	Beta cell apopt	LANA-H2A inh	UCH37 inh
COC(=O)c1ccccc1NC(=O)CN(C)S(=O)(=O)c1cc(C)ccc1OC	5	-4	-1.7	-1	-1.3	.	0.9	1.1
Cc1noc(C)c1C(=O)N1CCOCC1	-2	2	-1.2	-1	-0.1	-4	5.9	1.5
CCOC(=O)CSCc1csc(CC(=O)Nc2ccccc2C)n1	1	8	2.1	4	0.1	2	7.8	4.2
Cc1noc(C)c1COC(=O)c1ccc(S(=O)(=O)NCc2ccco2)cc1	5	18	-4.5	11	?	1	4.9	5.1
COCC(COS(N)(=O)=O)Cc1ccccc1 (stereo not given)	-2	-35	3.9	-1	-1.1	.	6.7	0.1
COc1ccc(O)c(CN2CCC(n3nccc3NC(=O)CCOc3ccccc3)CC2)c1	6	8	-1.6	-7	-0.7	-1	5.8	-0.5
O=C(NCc1cccc(C(F)(F)F)c1)c1cccc(S(=O)(=O)N2CCN(Cc3ccccc3)CC2)c1	-9	36	6.9	2	1.0	2	4.8	1.6
Cc1cc(C)nc(Nc2ccccc2Cl)n1	-1	-20	-0.8	5	-0.2	-1	-0.7	3.3
CCOc1ccc(NC(=O)CN(C)C(=O)c2sc3ccccc3c2Cl)cc1OCC	11	0	2.9	-1	-0.5	6	-0.8	0.7
N#CCC(=O)Nc1ccc(C(=O)OCc2ccccc2Oc2ccccc2)cc1	4	1	4.9	-11	-1.2	-4	-1.8	1.4
CC(=O)N(CCCNC(=O)c1ccccc1)C(=O)c1ccccc1	-4	-25	-3.6	2	0.0	-2	-0.3	2.9
Cn1cc(CCNCc2cn[nH]c2-c2ccc(-c3ccccc3)cc2)cn1	-3	11	-2.9	20	-0.2	2	2.1	1.5
CCOCCCNC(=S)N(CCN(C)C)Cc1cc2cc3c(cc2[nH]c1=O)OCCO3	26	-10	-1.9	1	1.3	-4	10	-173
CCOc1ccc(-n2c(SCC)nc3c(c2=O)SCC3)cc1	2	18	-0.9	-10	-0.4	-1	-2.9	-1.9
CCOC(=O)Nc1ccc2c(c1)N(C(=O)CN(CC)CC)c1ccccc1C=C2	-6	-6	2.3	-3	-0.6	0	-14	-3.1
COc1ccc(CCNC(=O)CS(=O)Cc2nc(-c3cccs3)oc2C)cc1OC (stereo not given)	-3	-10	2.8	7	0.7	-1	2.7	-0.4
O=C(NCC1CCCO1)c1ccc(NC(=O)c2ccc(Br)cc2)cc1 (stereo not given)	13	2	5.6	0	0.2	-6	4.1	3.7
COc1ccc(Cc2nnc(NC(=O)c3ccccc3[N+](=O)[O-])s2)cc1	-2	-15	0.8	7	0.9	-6	-5.8	1.7
CN(C(=O)Cc1c[nH]c2ccccc12)C(C(=O)Nc1ccc2c(c1)OCO2)c1ccccc1 (stereo not given)	5	26	-5.4	-1	0.4	4	5.9	-1.5
COc1cc(-c2nnc(CSc3nnc(N)s3)o2)cc(OC)c1OC	10	-19	-0.7	0	0.7	-4	0.0	2.2
O=S(=O)(Nc1cccc(S(=O)(=O)N2CCCCC2)c1)c1ccccc1F	.	.	.	3	0.0	-4	3.6	2.9
COc1cccc(CNCCc2c[nH]c3ccccc23)c1OCc1ccccc1	-1	42	0.4	18	-0.7	15	3.0	2.0
COc1ccccc1OCCC(=O)OCC(=O)Nc1ccc2c(c1)OCO2	.	.	.	2	-0.3	-10	1.1	1.9
CC(=O)c1ccc(NC(=O)CN2C(=O)NC3(CCc4ccccc43)C2=O)cc1 (stereo not given)	.	.	.	-1	0.3	2	-2.8	-0.2
Cc1ccc(NC(=O)CCNC(=O)c2ccco2)cc1Cl	-13	-11	26	2	1.8	-3	2.4	-1.1
O=C(O)CSc1nnc(-c2cc3ccccc3o2)n1-c1ccccc1	19	-5	2.5	6	-0.7	.	-0.3	0.5
CCOC(=O)C(=CNc1ccc(Cl)cn1)C(=O)OCC	-2	4	-3.2	-7	-0.2	6	15	7.3
Cc1ccc2c(c1)C(O)(CC(=O)c1cccc(-n3cccc3)c1)C(=O)N2 (stereo not given)	-12	-10	-2.7	-12	0.0	-6	-0.6	7.5
CCCCn1c(N)c(N(CCOC)C(=O)c2cc(-c3ccc(F)cc3)nc3ccccc23)c(=O)[nH]c1=O	9	-10	2.7	-2	0.7	-1	2.7	-8.4
COc1ccc(C2N=C(c3ccccc3)NC(c3ccccc3)=N2)cc1	-11	8	-1.2	-17	0.7	.	1.8	4.1

Another view of some results above.
Compound | Calb FLC | T cruzi repl | RanGTP-Impb inh | B2AR ag | A1 inh | Beta cell apopt | LANA-H2A inh | UCH37 inh
COc1cccc(CNCCc2c[nH]c3ccccc23)c1OCc1ccccc1 | -1 | 42 | 0.4 | 18 | -0.7 | 15 | 3.0 | 2.0
COc1ccccc1OCCC(=O)OCC(=O)Nc1ccc2c(c1)OCO2 | . | . | . | 2 | -0.3 | -10 | 1.1 | 1.9
CC(=O)c1ccc(NC(=O)CN2C(=O)NC3(CCc4ccccc43)C2=O)cc1 (stereo not given) | . | . | . | -1 | 0.3 | 2 | -2.8 | -0.2

More records:
SMILES	Calb FLC	T cruzi repl	RanGTP-Impb inh	B2AR ag	A1 inh	Beta cell apopt	LANA-H2A inh	UCH37 inh
Cc1sc(NC(=O)Cn2nc(C(F)(F)F)cc2C)c(C(=O)OC(C)C)c1C	-5	5	1.1	3	0.1	5	3.3	-6.0
O=C(c1ccccc1)N1CCN(c2ncnc3c(-c4ccccc4)nsc23)CC1	3	24	2.9	-4	-0.5	-1	7.0	-5.1
CC(=O)N1c2ccccc2N(Cc2ccc(C)cc2C)C(=O)C1(C)C	9	-30	-1.8	-4	1.3	10	-2.8	6.5
Cc1cc(=O)[nH]c(SCC(N)=O)c1C#N	3	-10	2.0	-1	0.7	1	-7.8	-1.5
CC1(C)NC(=O)N(CCOCCSc2ccccc2)C1=O	-20	-7	-3.0	10	-0.6	-3	-4.6	2.2
CCOc1ccc(NC(=O)Cc2ccccc2)c([N+](=O)[O-])c1	1	19	2.1	-3	1.8	3	-0.3	-1.5
Cc1onc(-c2ccccc2)c1C(=O)OCCOc1ccccc1F	2	10	-1.6	-4	-0.6	-2	5.0	4.4
NC(=O)c1ccc(NCC2CCCO2)c([N+](=O)[O-])c1 (stereo not given)	1	-12	-3.2	3	-1.5	-2	4.9	4.6
Cc1ccc(C2=NOC(=O)/C2=C\c2ccccc2)cc1	4	-19	-2.1	3	0.7	.	-0.4	1.0
COc1ccc(NC(=O)C(Cc2ccccc2)NC(=O)c2ccco2)cc1OC (stereo not given)	-7	3	.	-5	0.0	-1	2.6	4.2
Cc1ccc(S(=O)(=O)N2CCCCC2)cc1NC(=O)CSc1nncn1-c1ccccc1	0	4	0.0	-6	0.2	-2	2.7	1.6
CC(C)(C)OC(=O)NCCCCCNC(=O)c1[nH]cnc1C(=O)Nc1ccon1	.	.	.	-2	-0.4	-1	-3.0	0.2
Cc1cc(C(=O)CSc2nnc(N)s2)c(C)n1C1CC1	-2	7	0.2	-3	-0.1	-10	-6.0	-0.1
Cc1ccc(Nc2nnc(SCC(=O)c3ccc(O)cc3O)s2)cc1	-6	4	1.9	9	-0.3	1	4.1	5.7
CCc1ccc(C2C(=O)c3ccccc3C2=O)cc1	-1	6	0.2	-1	-1.4	0	-0.1	5.6
CC(C)c1ccc(NC(=O)COC(=O)c2nn(C)c(=O)c3ccccc23)cc1	.	.	.	11	-0.1	0	-0.5	3.0
O=C(Nc1ccccc1C(F)(F)F)C1CCN(C(=O)c2cccs2)CC1	-6	-3	?	-1	0.6	5	1.1	3.3
CN(C)S(=O)(=O)c1cccc(-c2nnc3n2CCCCC3)c1	0	-1	-0.2	-1	1.4	-2	-1.7	1.4
COc1cc(/C=N/NC(=O)c2ccc(CN3C(=O)c4cccc5cccc3c45)cc2)cc(OC)c1O	-3	8	-1.2	12	0.1	39	2.3	.
CCCC12C(=O)C(C)(C(c3ccccc3)=C1c1ccccc1)C1C(=O)N(c3ccc(C)cc3)C(=O)C12 (stereo not given)	-4	46	-2.0	1	1.1	105*	3.2	0.7
CC(CN1CCOCC1)OC(=O)C(C)(c1ccccc1)c1ccccc1 (stereo not given)	7	10	0.3	1	-1.5	-4	0.6	0.5
CCOC(=O)Cc1csc(NC(=O)c2sc3nc4cc(C)ccc4cc3c2N)n1	24	5	12	-11	-1.2	.	-1.3	7.0
CC(C)O/N=C1\C(=O)N(c2ccccc2)c2ccccc21	19	29	-0.3	-7	0.0	4	0.4	.
Cn1c(=O)n(CC(=O)Nc2ccccc2)c2ccccc21	-3	-9	1.0	0	0.6	7	-1.5	-0.9
Cn1c(N)c(C(=O)COC(=O)c2cc(-c3ccco3)nc3ccccc23)c(=O)n(Cc2ccccc2)c1=O	23	-12	3.5	.	-1.8	-4	1.1	.
CC(C)(C)c1ccc(-c2nn(CCC#N)cc2/C=N/O)cc1	-37	9	-2.3	1	0.9	-2	-1.5	.
CCOC(=O)C1CCCN(C(=O)c2sc3nc(-c4ccc(F)cc4)cn3c2C)C1 (stereo not given)	2	3	1.6	13	-0.2	-7	-6.6	2.0
Cc1ccc(C(=O)C(c2ccccc2)N2Cc3ccccc3C2=N)cc1 (stereo not given)	0	37	-3.0	81*	-1.0	17	-4.6	-20
CCOc1ccc(NC(=O)CSc2nnc(Cc3ccccc3)c(=O)n2N)cc1	-3	0	2.4	1	0.5	-6	-1.6	8.1
Cc1onc(-c2ccccc2)c1C(=O)Nc1nnc(N2CCCCCC2)s1	-2	17	-1.2	-2	-0.2	.	1.1	1.3
Nc1ccc(Sc2ccccc2)nc1	-22	-16	-2.6	-2	-0.1	.	0.2	0.7
COc1ccc(/C(C)=N/Nc2cccc(C(=O)O)c2)cc1OC	-3	5	10	-1	0.2	-1	-1.2	.
CC1C/C(=C/c2cccn2C)C(=O)/C(=C/c2cccn2C)C1 (stereo not given)	7	13	-4.2	-381	-0.4	5	-43	6.1
O=C(NC1CCCCC1)c1cc(S(=O)(=O)N2CCCC2)ccc1Cl	-5	-3	-2.7	1	0.9	-2	7.3	2.9

Compound profiles (already shown). Order of screens: Calb FLC, T cruzi repl, RanGTP-Impb inh, B2AR ag, A1 inh, Beta cell apopt, LANA-H2A inh, UCH37 inh
CC1C/C(=C/c2cccn2C)C(=O)/C(=C/c2cccn2C)C1 (stereo not given) across the screens: 7, 13, -4.2, -381, -0.4, 5, -43, 6.1
O=C(NC1CCCCC1)c1cc(S(=O)(=O)N2CCCC2)ccc1Cl across the screens: -5, -3, -2.7, 1, 0.9, -2, 7.3, 2.9
Nc1ccc(Sc2ccccc2)nc1 across the screens: -22, -16, -2.6, -2, -0.1, ., 0.2, 0.7
COc1ccc(/C(C)=N/Nc2cccc(C(=O)O)c2)cc1OC across the screens: -3, 5, 10, -1, 0.2, -1, -1.2, .
